# KCNQ2 inh – KCNQ2 potassium channel inhibitors, primary screen, cell-based, CHO-K1, FluxOR thallium flux, B-score (AID 2156); 1.1% of 310,000 active; B-score at 10 µM; 20 min; stronger effect = lower value; only compounds with negative scores are shown here; some inactives read as strong as hits; Potassium voltage-gated channel subfamily KQT member 2 (Rattus norvegicus), O88943;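 active means fluorescence ratio B-score at most minus 3 library SDs, with starting brightness B-score within 2 library SDs, cut at about -5.5 in these data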
# Target sequence (O88943 whole entry, looked up): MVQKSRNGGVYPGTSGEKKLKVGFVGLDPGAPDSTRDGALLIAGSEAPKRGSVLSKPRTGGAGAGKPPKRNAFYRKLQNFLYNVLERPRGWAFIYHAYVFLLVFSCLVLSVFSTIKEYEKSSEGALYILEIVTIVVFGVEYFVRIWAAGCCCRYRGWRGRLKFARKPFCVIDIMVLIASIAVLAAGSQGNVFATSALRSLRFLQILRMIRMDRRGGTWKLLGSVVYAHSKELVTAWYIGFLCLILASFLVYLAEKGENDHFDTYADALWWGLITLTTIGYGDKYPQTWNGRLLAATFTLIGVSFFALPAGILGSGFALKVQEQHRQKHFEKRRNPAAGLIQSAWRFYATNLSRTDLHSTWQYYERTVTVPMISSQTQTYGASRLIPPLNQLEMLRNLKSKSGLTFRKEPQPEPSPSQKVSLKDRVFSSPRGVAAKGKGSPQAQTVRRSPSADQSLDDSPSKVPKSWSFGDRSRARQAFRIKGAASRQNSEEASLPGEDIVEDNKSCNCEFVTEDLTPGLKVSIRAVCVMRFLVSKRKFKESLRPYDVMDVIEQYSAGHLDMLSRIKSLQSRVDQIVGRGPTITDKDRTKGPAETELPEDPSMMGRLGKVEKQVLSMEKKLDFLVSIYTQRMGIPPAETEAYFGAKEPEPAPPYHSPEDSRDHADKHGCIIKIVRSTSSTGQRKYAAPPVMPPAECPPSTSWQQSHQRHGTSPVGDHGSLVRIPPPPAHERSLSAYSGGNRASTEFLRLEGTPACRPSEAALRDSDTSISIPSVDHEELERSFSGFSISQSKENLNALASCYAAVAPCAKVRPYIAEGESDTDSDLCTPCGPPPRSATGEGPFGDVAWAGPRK
# KCNQ2 inh baseline – recorded beside KCNQ2 inh, whose call it bears; B-score; measured here: initial fluorescence intensity artifact check;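 brightness before thallium and not channel activity; 0 = typical well and far values either way flag optical interference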
# The depositor's hits bear a star; i = inactive. Some of the compounds tested; count on the stated rates, not on these rows.
# The first five entries (preview)
Molecule	KCNQ2 inh	KCNQ2 inh baseline
Cc1onc(-c2ccccc2)c1C(=O)N/N=C/c1cn(C)c2ccccc12	-6.39*	1.15*
Cc1ccc(NCc2nnc(SCC(=O)NCc3ccco3)n2CC2CCCO2)cc1Cl (configuration not stated)	i	-0.02
COCCNC(=O)Cn1cc(C(=S)N2CCOCC2)c2ccccc21	i	-0.05
Cc1ccc2c(c1)nnn2C1CCN(CC(=O)Nc2ccccc2N2CCOCC2)CC1	i	0.96
Cc1ccc2nc(-c3ccc(NC(=O)COC(=O)c4ccco4)cc3)sc2c1	i	-3.3

# Main list, from the start:
Molecule	KCNQ2 inh	KCNQ2 inh baseline
Cc1onc(-c2ccccc2)c1C(=O)N/N=C/c1cn(C)c2ccccc12	-6.39*	1.15*
Cc1ccc(NCc2nnc(SCC(=O)NCc3ccco3)n2CC2CCCO2)cc1Cl (configuration not stated)	i	-0.02
COCCNC(=O)Cn1cc(C(=S)N2CCOCC2)c2ccccc21	i	-0.05
Cc1ccc2c(c1)nnn2C1CCN(CC(=O)Nc2ccccc2N2CCOCC2)CC1	i	0.96
Cc1ccc2nc(-c3ccc(NC(=O)COC(=O)c4ccco4)cc3)sc2c1	i	-3.3
COCc1cc(C)nc2sc(C(=O)Nc3ccc(C(=O)OC)cc3)c(N)c12	i	0.61
Cc1cccc(NC(=O)c2cc3n(n2)C(C(F)(F)F)CC(C2CC2)N3)c1C (configuration not stated)	i	-0.42
COC(=O)c1sccc1NC(=S)N1C(C)CCCC1C (configuration not stated)	i	-1.98
CCOc1ccc(N(CC(=O)Nc2ccc(OC)cc2)S(=O)(=O)c2c(C)noc2C)cc1	i	0.1
CC(=O)c1ccc2noc(-c3ccc(F)cc3)c2c1	i	1.69
CCOc1cc(Br)c(C(=O)O)cc1OC	i	0.55
CCCCC(=O)Nc1ccc(NC(=O)c2cccs2)cn1	i	1.85
Cc1ccc(C(=O)C(C)N(C(=O)c2ccc(Cl)cc2Cl)N2C(=O)CCCC2=O)cc1 (configuration not stated)	i	1.85
CSC(=NCc1ccco1)NC#N	i	0.94
CCOc1cc(-c2nc(C)c(C(C)=O)n2O)ccc1OCC(=O)Nc1cccc(C)c1	i	4.66
COC(=O)c1sc(NC(=O)COc2c(C)cccc2C)nc1C	i	0.19
COc1ccc(N/C(=C(/C(Cl)=C(Cl)Cl)[N+](=O)[O-])n2nnc3ccccc32)cc1OC	i	1.92
Cc1c(C(=O)N/N=C/c2ccccc2)sc(=S)n1C	i	-0.23
S=C(NCc1ccco1)N1CCN(c2ccccn2)CC1	i	-0.48
c1cncc(-c2noc(C34CC5CC(CC(C5)C3)C4)n2)c1	i	1.57
COc1cc(/C=N/N2CCN(c3ccccc3)CC2)cc(OC)c1OC(C)=O	i	1.49
O=C(NCc1ccco1)C1(c2ccccc2)CCCC1	i	0.05
FC(F)(F)c1cnc(COc2cc(Cl)cc(Cl)c2)c(Cl)c1	i	-1.74
Cc1ccc(S(=O)(=O)N2CCC(=O)N(CCOCc3cccc(C(F)(F)F)c3)CC2)cc1	i	1.22
Cc1csc2nc(SCC(=O)Nc3ccccc3F)[nH]c(=O)c12	i	2.22
O=C1NN(c2ccccc2)C(=O)/C1=C/c1coc2ccccc2c1=O	i	1.42
COc1ccc(-c2cc(C(=O)N3CCN(c4ccccn4)CC3)c3ccccc3n2)cc1	i	-0.06
CCOC(=O)C(C(=O)Nc1ccc(C)cc1)C1CCCCC1 (configuration not stated)	i	-0.18
Cc1ccc(C(=O)Nc2ccccc2C(=O)N2CC3(C)CC2CC(C)(C)C3)cc1 (configuration not stated)	-6.06*	-1.05*
CCC1(CC)C(=O)N(C)C(=O)NC1=NCc1ccccc1	i	-0.2
COc1cccc(NC(=O)COc2ccc(N3CC(C(=O)NCC(C)C)CC3=O)cc2)c1 (configuration not stated)	i	-1.71
Cc1cccc(NC(=O)CN2CCCN(S(=O)(=O)c3ccc(Br)s3)CC2)c1	i	-0.77
CC(=O)C1=C(c2ccccc2)NC(=O)NC1c1ccc(O)c(Cl)c1 (configuration not stated)	i	0.73
Cc1ccccc1NS(=O)(=O)c1cc(C(=O)NCCC2=CCCCC2)ccc1C	i	2.57
O=C(CN1C(=O)/C(=C/c2ccc(F)cc2)SC1=S)NC1CCS(=O)(=O)C1 (configuration not stated)	i	2.03
Cn1c(-c2ccc(F)cc2)cnc1NCc1ccccc1	i	0.54
COc1cc(C2C(C#N)=C(N)OC3=C2C(=O)CCC3)c([N+](=O)[O-])cc1OC (configuration not stated)	i	10.6
C=C(C)C1CC=C(CN2CCC(C(=O)OCC)CC2)CC1 (configuration not stated)	i	0.96
CCOc1cc(N2CCOCC2)c(OCC)cc1NC(=O)CCS(=O)(=O)c1ccc(Cl)cc1	i	0.08
Cc1ccc(NC(=O)CNc2cc(S(=O)(=O)N3CCOCC3)ccc2NCC2CCCO2)cc1F (configuration not stated)	i	1.22

# Other records.
canonical_smiles | KCNQ2 inh | KCNQ2 inh baseline
C=CCOC(=O)N1CCN(c2cccc(C(F)(F)F)c2)CC1 | i | 1.17
O=C(CCCc1cccs1)Nc1nccs1 | i | -1.43
O=C1NCCCC1C(=O)N/N=C/c1cc([N+](=O)[O-])ccc1O (configuration not stated) | i | -0.04
CC(C)NC(=O)/C(=N\O)c1ccccc1 | i | 0.05
Cc1c(NCc2ccccc2O)c(=O)n(-c2ccccc2)n1C | i | -2.2
Cc1ccccc1OC(C)c1nc(-c2ccccc2)no1 (configuration not stated) | i | -0.46
CNC(=O)CSc1nnc(-c2ccco2)n1-c1cccc(C)c1C | i | -2.09
COc1ccc(C(C)=O)cc1COC(=O)c1ccc(N)c([N+](=O)[O-])c1 | i | -1.86
O=C(Nc1cc(Sc2ccccn2)cc([N+](=O)[O-])c1)c1cccc(F)c1 | i | -0.71
Cc1ccsc1/C=N/NC(=O)c1ccco1 | i | 1.32
O=C(CN1C(=O)COc2ccccc21)Nc1ccc(N2CCOCC2)cc1 | i | 1.4
CCOC(=O)C1CCCN(C(=O)c2cc(Nc3ccc(OC)cc3OC)nc3ccccc23)C1 (configuration not stated) | -7.62* | -1.84*
COc1ccc(-n2c(Cc3cccn3C)nnc2SCC(=O)Nc2ccc(C)c(Cl)c2)cc1 | i | -2.39
COc1ccc(-c2[nH]c(-c3ccc(C)cc3)nc2SCC(=O)Nc2nccs2)cc1 | i | 0.32
Nc1cccc(-c2nc3ccc(N)cc3s2)c1 | i | -2.61
COCCCNCC(=O)Nc1sc(C)c(C)c1C(=O)OC | i | -1.05
CCN(CC)CCCNc1ccc(-c2nnc(-c3ccc(OCC(C)C)cc3)o2)cn1 | -7.32* | 0.38*
Cc1ccc(SCCCCN2CCNCC2)cc1 | i | -1.15
CC(C)c1ccc(-c2noc(C3CCCN(C(=O)c4ccc(F)cc4F)C3)n2)cc1 (configuration not stated) | i | 1.59
CCCN(C(=O)CN1C(=O)NC2(CCCCCC2)C1=O)C1CCS(=O)(=O)C1 (configuration not stated) | i | -0.99
CCN=C1Sc2nc3ccc(OCC)cc3cc2CN1CCOC | i | 1.63
CCOC(=O)c1ccc2c(c1)sc(=NC(=O)c1ccco1)n2CCOC | i | 0.43
CC(NC(=O)CSc1n[nH]c(N)n1)c1ccccc1 (configuration not stated) | i | 1.14
COc1ccc(C(=O)Nc2scc(-c3ccc(Cl)cc3Cl)c2C(N)=O)cc1 | i | -0.49
O=C1CC2C(=O)NCCN2C(=NC(=O)c2ccccc2)N1 (configuration not stated) | i | 0.97
COc1ccc(NC(=O)CN2CCN(c3c(C)cc(C)cc3C)CC2)cc1 | i | 0.16
COc1ccccc1NC(=O)/C(=N/OCc1ccc(F)cc1)C(C)=O | i | -0.61
CC(C)CCOc1ccc(NC(=O)C2OC3OC(C)(C)OC3C3OC(C)(C)OC23)cc1 (configuration not stated) | i | 1.34
COc1ccc2oc(=O)c(C(=O)N3c4ccccc4CC3C)cc2c1 (configuration not stated) | i | -1.15
Cc1ccc(C(=O)NCCc2c[nH]c3ccccc23)c(C)c1 | i | 1.5
O=C(Cc1ccccc1F)OCC(=O)N1CCc2ccccc21 | i | -0.06
C=CCn1c(SC(C)C(=O)NC2CC2)nnc1-c1ccoc1C (configuration not stated) | i | 0.13

# Six entries from above, ordered by length of the SMILES, descending:
canonical_smiles | KCNQ2 inh | KCNQ2 inh baseline
Cc1cccc(NC(=O)c2cc3n(n2)C(C(F)(F)F)CC(C2CC2)N3)c1C (configuration not stated) | i | -0.42
COc1cc(/C=N/N2CCN(c3ccccc3)CC2)cc(OC)c1OC(C)=O | i | 1.49
CNC(=O)CSc1nnc(-c2ccco2)n1-c1cccc(C)c1C | i | -2.09
C=CCn1c(SC(C)C(=O)NC2CC2)nnc1-c1ccoc1C (configuration not stated) | i | 0.13
Cc1ccccc1OC(C)c1nc(-c2ccccc2)no1 (configuration not stated) | i | -0.46
O=C(CCCc1cccs1)Nc1nccs1 | i | -1.43

# Further results follow:
canonical_smiles | KCNQ2 inh | KCNQ2 inh baseline
O=C(O)c1ccc(N2C(=O)CC(SC(=NCc3ccc4c(c3)OCO4)Nc3ccccc3)C2=O)cc1 (configuration not stated) | i | 1.02
Cc1ccnc(NS(=O)(=O)c2ccc(NC(=O)C3CCCCC3)cc2)n1 | i | 0.33
O=C(Nc1cccc(Cl)c1)Nc1ccc(Br)cc1F | i | -0.65
COc1ccc(N2CCN(C(=O)c3cccc(NS(=O)(=O)c4cccc(F)c4)c3)CC2)cc1 | i | 1.6
CCn1c(=N)n(CC(O)COc2ccc(C)cc2)c2ccccc21 (configuration not stated) | i | -0.02
O=C(c1ccc(F)cc1F)N1CCN(c2ccccn2)CC1 | i | -1
CN(C)C(=O)CSc1cccc2cccnc12 | i | 2.05
Oc1ccc2ccccc2c1CN1CCOCC1 | i | 0.16
Cc1[nH]n(-c2ccccc2)c(=O)c1CCOC(=O)c1ccc(C(F)(F)F)cc1 | i | -0.16
CCOC(=O)c1ccc(-n2c(CN3CCOCC3)nc3ccc([N+](=O)[O-])cc3c2=O)cc1 | i | 0.61
CN1CCN(CCCN2c3ccccc3Sc3ccc(C(F)(F)F)cc32)CC1 | -8.12* | -0.43*
O=C1CCCC2=C1C(c1ccc(O)c(Br)c1)C1=C(CCCC1=O)N2c1ccccc1 | i | 0.09
CC(N=C1NS(=O)(=O)c2ccccc21)c1ccccc1 (configuration not stated) | i | 1.31
CCC1(C)NC(=O)N(CC(=O)N2N=C(c3ccccc3)CC2c2ccc(OC)cc2)C1=O (configuration not stated) | i | 1.72
CSCCC(NC(=O)c1ccccc1Cl)C(=O)Nc1ccc(C)c(S(=O)(=O)N2CCOCC2)c1 (configuration not stated) | i | 2.1
COC(=O)CN1C(=S)N(c2ccc(OC)cc2)C(=O)/C1=C/c1ccc(N2CCOCC2)cc1 | i | 1.48
CN1CCN(C(=O)C2(NC(=O)Nc3ccccc3Cl)CCCCC2)CC1 | i | 0.55
CC1(C)N=C(C(=O)c2ccccc2)N(O)C1(C)O (configuration not stated) | i | 1.29
CN(C)/C=C1\C=C2C(=O)c3ccccc3N2C1=O | i | 100
CCOC(=O)c1ccc(NC(=O)CCc2ccc(CC)o2)cc1 | i | -2.89
Cc1nn(Cc2c(F)cccc2Cl)c(=O)c2ccccc12 | i | -1.46
CC(=O)c1nc2ccccc2n1CCc1ccccc1 | i | -0.69
O=S(=O)(c1ccc(-c2ccon2)s1)N1CCN(c2ccncc2)CC1 | i | 1.56
COc1cc(NC(=O)c2cnn3c(C)cc(C)nc23)c(OC)cc1Cl | i | 0.63
O=C(CSC(=S)N1CCOCC1)c1cc(Br)cc(Br)c1O | i | 1.31
Cc1[nH]n(-c2ccccc2)c(=O)c1C(c1ccccc1[N+](=O)[O-])C(C#N)C#N (configuration not stated) | i | 0.17
CN(C)c1ccc(NC(=O)CN2CCC(NC(=O)C3CCCCC3)CC2)cc1 | i | -0.04
COc1ccccc1S(=O)(=O)Cc1ccc(C(=O)NCCN2CCCC2)o1 | i | 0.12
Cc1nn(C(=O)c2cccs2)c(N)c1-c1ccccc1 | i | 0.8
CC(C)NC(=O)c1ccc(N2CCOCC2)nc1 | i | 0.18
CC(/C=C/c1ccccc1)=N\Nc1nc(-c2ccccc2)cs1 | i | -2.39
CC(CCN1CCN(CCO)CC1)c1ccccc1 (configuration not stated) | i | 1.55
COc1ccc(OC)c(NC(=O)c2ccc(-c3csc(C)n3)cc2)c1 | i | 0.73
CC(C)Nc1nnc(SCC(=O)c2c(N)n(Cc3ccccc3)c(=O)n(C)c2=O)s1 | i | 0.38
O=C(Nc1nnc(SCc2ccccc2Cl)s1)C1COc2ccccc2O1 (configuration not stated) | i | 0.51
COC(=O)c1cn(C(=O)c2cccc(Br)c2)c2ccccc12 | i | 0.75
CCCc1nc2c(ccc3ccccc32)cc1CC | i | -0.48
O=C(COc1ccccc1Cl)Nc1nc(-c2cccs2)cs1 | i | -0.01
CCN(CC)CCOC(=O)c1ccc(NC(=O)CCCN2C(=O)/C(=C/c3cccs3)SC2=S)cc1 | i | 2.1
CCOc1ccc(N(CC(=O)NC2CCCCC2)S(=O)(=O)c2ccc(C)cc2)cc1 | i | 0.74
O=C(O)c1ccc(CS(=O)(=O)c2c(Cl)cccc2Cl)o1 | i | -1.87
Nc1ccc(-n2c(N)c(C(=O)NCc3ccc4c(c3)OCO4)c3nc4ccccc4nc32)cc1 | i | 3.53
COc1ccc(/C=C/C(=O)N[C@@H](C)C(=O)O)cc1 | i | -0.21
O=C(c1cc([N+](=O)[O-])ccc1N1CCOCC1)N1CCN(c2ccc([N+](=O)[O-])cc2)CC1 | i | 0.02
O=[N+]([O-])c1ccc(N2CCN(Cc3ccncc3)CC2)cc1 | i | 2.27
O=C(c1cn(CC(=O)N2CCCC2)c2ccccc12)C1CCCCC1 | i | -0.89
COc1ccc(-n2c(Cc3cccn3C)nnc2SCC(=O)Nc2ccccc2C)cc1 | i | -0.1

# Source: PubChem BioAssay (Johns Hopkins Ion Channel Center)
